Compound activity from PubChem BioAssay.
miR-21 reporter: qHTS Assay for Modulators of miRNAs and/orActivators of miR-21; 340,000 tested, under 10 active; AID 2288, 2010; HeLa miR-21 FLuc reporter, luciferase, 48 h; Potency, µM (series often up to 38.3 µM), for the others: top-dose reporter change, positive = more light; active = well fitted rising curve with a large enough effect; inconclusive = small, poorly fitted or top-dose-only effect; inactive = no such curve, though single readings can be large or run the other way;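 also: % of control where 0% means no effect; miR-21 action dims this reporter so a rising signal means less miR-21 action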
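HeLa cells stably expressing CMV-driven firefly luciferase with a downstream miR-21 binding sequence, endogenously expressing miR-21, were treated with titrations (up to about 40uM final) for 48 hours at 37 degree Celsius. Luciferase luminescence was read after lysis.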
Active calls of the source: *; ? = inconclusive.

SMILES | miR-21 reporter
CCOCCc1nn2c(=O)cc(COC(=O)COc3ccc(C)c(C)c3)nc2s1 | -2%
CCN(CC)c1nn2c(=O)c(C(=O)NCc3cccc(OC)c3OC)cnc2s1 | 2%
COc1ccc(C)c2sc(N(Cc3cccnc3)C(=O)COc3ccccc3)nc12 | -2%
Cc1ccc(Cl)cc1NC(=O)C1CCCN(S(=O)(=O)c2cccc3cccnc23)C1 (centres undefined) | 14%
CCc1ccc(NC(=O)C2CCCN(S(=O)(=O)c3cccc4nonc34)C2)cc1 (centres undefined) | 2%
CN1CCN(C2(CNC(=O)c3ccc([N+](=O)[O-])cc3)CCCCC2)CC1 | 3%
O=C(Nc1cccc(C(F)(F)F)c1)c1ccc2snnc2c1 | -12%
COc1ccc(OC)c(NC(=O)C(C)n2c(=O)c(-c3ccccc3NC(C)=O)nc3ccccc32)c1 (centres undefined) | 2%
CC(=O)Nc1ccc(NC(=O)CSc2nccn2Cc2ccc3c(c2)OCO3)cc1 | 14%
CCOc1ccc(S(=O)(=O)c2c(C(=O)c3ccc(CC)cc3)cnc3ccc(C)cc23)cc1 | -13%
COC(=O)c1ccccc1NC(=O)c1nc(S(=O)(=O)Cc2cccc(C)c2)ncc1Cl | -5%
Cc1ccc(Cl)cc1NC(=O)c1oc2ccc(S(=O)(=O)N3CCC4(CC3)OCCO4)cc2c1C | 4%
CC(C)c1ccc(NC(=O)Nc2csc3c2CCCC3)cc1 | 22%
O=C1c2[nH]nc(-c3ccccc3O)c2C(c2cccc(Cl)c2)N1Cc1cccnc1 (centres undefined) | 12%
CCN1CCN(c2ncnc3c2cnn3-c2cc(Cl)ccc2C)CC1 | 0%
COc1ccc(Cl)cc1NC(=O)Cn1c(=O)n(CCC(=O)NCc2ccc3c(c2)OCO3)c(=O)c2ccccc21 | -5%
CCCNC(=O)C1CCN(C(=O)N2CC(C)Oc3ccccc32)CC1 (centres undefined) | -44%
CCCOc1cccc(C(=O)Nc2cccc3cccnc23)c1 | -15%
O=C(CSCc1cnn(-c2ccccc2)c1-n1cccc1)NCc1cccc(Cl)c1 | -4%
CCOc1ccc(-c2cc(C(=O)Oc3ccc(C#N)cc3)no2)cc1 | -11%
Fc1ccc(Nc2nc(SCc3ccccc3Cl)nc3ccccc23)cc1 | 11%
O=C(NCC(c1ccc2c(c1)OCO2)N1CCN(c2ccccc2)CC1)c1ccccc1F (centres undefined) | -1%
CCCCCn1c(=N)c(S(=O)(=O)c2ccccc2)cc2c(=O)n3ccccc3nc21 | -3%
COc1cc(/C=C2/C(=O)N(c3ccc(Br)cc3)N=C2C)cc([N+](=O)[O-])c1O | -1%
Cc1nn(C)c2c1c(C(F)(F)F)cc(=O)n2C(C)C(=O)NCCC(C)C (centres undefined) | 0%

Remaining list, next part.
SMILES | miR-21 reporter
NC(=O)COc1ccc(-c2noc(COc3ccc(Cl)cc3)n2)cc1 | -5%
Cc1ccc(CNS(=O)(=O)c2cc(C(=O)Nc3ccc(C(C)C)cc3)ccc2F)cc1 | 11%
Cc1cccc(-c2nc(Cn3c(SCc4cccc(C(F)(F)F)c4)nc4ccncc43)c(C)o2)c1 | -12%
O=C(Nc1ccc(Br)cc1)c1cc2nc(-c3ccccc3)cc(-c3ccccc3)n2n1 | 0%
COc1cc(NC(=O)c2nnn(CC(=O)Nc3cc(C)ccc3C)c2N)cc(OC)c1 | -27%
CCc1cccc(C)c1NC(=O)C1CCN(S(=O)(=O)c2c(C)noc2/C=C/c2c(C)cc(C)cc2C)CC1 | 1%
COc1ccc(C)cc1-n1cnc2cc(C(=O)NC3CCCC3)ccc21 | -7%
CCOC(=O)c1cnc2ccc(C)cc2c1Nc1ccc(OCc2ccccc2Cl)cc1 | 13%
COc1ccc(CCNC(=O)CSc2cn(CCNC(=O)c3ccccc3F)c3ccccc23)cc1OC | -10%
Cc1cccc(NC(=O)CCn2nc(-c3ccccc3)c3ccccc3c2=O)c1 | 29%
CCC(=O)N1c2ccccc2CC1C(=O)NCc1cc(OC)ccc1OC (centres undefined) | 9%
Cc1ccccc1C(=O)Nc1sc2c(c1C(=O)N1CCCCC1)CCC(C)C2 (centres undefined) | 8%
CCOC(=O)c1ccc(NC(=O)c2cc3c(=O)n(C)c4ccccc4c3n2C)cc1 | 3%
Cc1nnc(N2CCN(c3ccccc3F)CC2)c2c1nnn2Cc1ccccc1 | 9%
Cc1cc(C)c(NS(=O)(=O)c2cc(-c3onc(C)c3C)ccc2C)c(C)c1 | 16%
CCc1cccc(-n2c(=O)c3cccnc3n2CC(=O)Nc2ccccc2C(=O)OC)c1 | 0%
COC(=O)c1ccccc1NC(=O)N1CCc2c(sc3c2CCCC3)C1c1ccc(F)cc1 (centres undefined) | -8%
COc1ccc(Nc2nc3c(S(=O)(=O)c4ccccc4)nnn3c3ccc(Cl)cc23)c(OC)c1 | 3%
O=C(c1cccn1-c1nnc(N2CCCC2)s1)N1CCN(c2ccc(F)cc2)CC1 | -7%
COC(=O)c1ccc(Cl)cc1NC(=O)N(C)CCc1c(C)nn(C)c1C | -19%
COc1ccccc1CNC(=O)CCCN1C(=O)CSc2c1c(C)nn2-c1ccccc1 | 0%
CCc1ccc(N2CCn3c2nc2c3c(=O)n(Cc3cccc(C)c3)c(=O)n2C)cc1 | -18%
CC(C)N(C(=O)CSc1nc2ccc(Cl)cc2[nH]1)c1ccccc1 | -7%
CCc1cccc(NC(=O)C(NS(=O)(=O)c2ccc3nc(C)sc3c2)C(C)C)c1 (centres undefined) | -2%
CN(C)c1ccc(CNC(=O)CN2C(=O)c3cccnc3Oc3ccc(Cl)cc32)cc1 | 18%

Further structures.
SMILES | miR-21 reporter
Cc1cc(OCC(=O)Nc2cc(-c3nc4ccccc4[nH]3)ccc2C)ccc1Cl | -7%
CCOc1ccc2nc(N3CCCC(C(=O)NCCc4ccc(OCC)c(OCC)c4)C3)sc2c1 (centres undefined) | -4%
CCOC(=O)c1c(C)oc2ncnc(N3CCN(c4ccc(C)cc4C)CC3)c12 | 1%
Cc1cccc(NC(=O)c2nc(S(C)(=O)=O)ncc2Cl)c1 | ?
CCN(Cc1ccccc1)C(=O)c1cn(-c2cccc(OC)c2)c(=O)c2ccccc12 | 3%
Cc1cc(C)c(NC(=O)CSc2n[nH]c(-c3ccccc3Cl)n2)c(C)c1 | 3%
COc1ccccc1CCNC(=O)CCCn1c(=O)c2cccn2c2cccnc21 | -15%
CCOc1ccc(Nc2c(S(=O)(=O)c3ccc(Cl)cc3)cnc3ccc(OC)cc23)cc1 | 12%
O=C1c2ccccc2-c2onc3c(Br)cc(NC4CCCCC4)c1c23 | -2%
O=C(Cn1cc(SCc2ccccc2Cl)c2ccccc21)N1CCCCCC1 | 18%
COC(=O)c1cccc(Nc2c(-c3ccc(O)cc3)nc3nc[nH]n23)c1 | -23%
CCOC(=O)C1CCCN(c2cc(C)nc3c(-c4ccccc4OC)c(C)nn23)C1 (centres undefined) | 4%
Cc1ccc(C)c(NC(=O)CCNS(=O)(=O)c2ccc3c(c2)CCCC(=O)N3)c1 | -3%
CCOc1ccc(NS(=O)(=O)c2ccc3[nH]cc(C(=O)NCc4ccco4)c(=O)c3c2)cc1 | 1%
COc1cc(NC(=O)c2cccc3c2C(=O)N(C2CCCCC2)C3)cc(OC)c1 | -2%
Cc1c(Cl)cccc1NC(=O)C(=O)NCCc1csc(-c2ccc(C(F)(F)F)cc2)n1 | 0%
Cc1ccc(C)c(NC(=O)CN2CCSc3ccc(S(=O)(=O)N4CCCC4)cc32)c1 | 4%
CN(C)c1ccc(CNC(=O)Cn2c(-c3cccs3)cc3cc(Cl)ccc32)cc1 | 4%
CCOc1ccc(-c2oc3ccccc3c(=O)c2O)cc1OCC | -11%
COc1ccc(CCNC(=O)CSCc2nc(-c3ccc(OC)c(OC)c3)oc2C)cc1OC | -23%
O=C(Nc1ccccc1Cl)C1CCN(c2nc3ccccc3nc2C(F)(F)F)CC1 | 1%
CCOC(=O)Cn1c(=O)n(CC2CCCO2)c2nc(-c3ccc(CC)cc3)nc(C(N)=O)c21 (centres undefined) | -2%
CCCc1nc2ccccc2n1CC(O)COc1ccc(C(=O)OC)cc1 (centres undefined) | -2%
O=C(Nc1ccc(Br)cc1F)N1CCC(CN2CCCC2)CC1 | -9%
O=C(NCCc1ccccc1)c1ccc(CSc2nc3cccnc3n2Cc2ccc(F)cc2)cc1 | 0%

New compounds follow.
SMILES | miR-21 reporter
Cc1cccc(NC(=O)NCCn2c(=O)oc3ccc(C)cc32)c1 | -3%
CC(NC(=O)CCCC1=NS(=O)(=O)c2ccccc2N1)c1ccccc1 (centres undefined) | -2%
COc1ccc2c(C)cc(SCC(=O)Nc3nsc(-c4ccc(C(C)(C)C)cc4)n3)nc2c1 | -17%
COc1ccc(CNS(=O)(=O)c2ccc3c(c2)NC(=O)C(C)C(=O)N3)cc1 (centres undefined) | ?
CCOc1ccc(NC(=O)Cn2c(=O)n(Cc3nc(-c4ccccc4)no3)c(=O)c3cc4c(cc32)OCO4)cc1 | 5%
Cc1[nH]n2c(=O)cc(-c3ccccc3Cl)nc2c1-c1ccccc1 | 0%
CCOc1ccccc1CNC(=O)c1ccc2nc(N3CCC(C)CC3)sc2c1 | -36%
CCOC(=O)C1CCN(c2nc3c(S(=O)(=O)c4ccc(CC)cc4)nnn3c3ccc(Cl)cc23)CC1 | -1%
Cc1oc(C)c2c(=O)cc(-c3ccc4c(c3)OCO4)cc(OC(=O)c3cccc(Br)c3)c12 | -3%
Cc1ccc(Cl)cc1N1CCN(C(=O)c2c(C)oc3ncnc(N4CCCCC4)c23)CC1 | 20%
CC(C)c1nn2c(=O)cc(COC(=O)c3ccc(NC(=O)c4cccs4)cc3)nc2s1 | -2%
COCCNc1nc2c(c(=O)n(C)c(=O)n2C)n1Cc1c(F)cccc1Cl | 5%
Cc1nn2c(C)c(C(=O)NCc3cccc(Br)c3)cnc2c1-c1ccccc1 | 4%
COc1ccc(Cl)cc1NC(=O)c1c(NCc2ccc(C)o2)sc2c1CCC(C)C2 (centres undefined) | 5%
COc1ccc(S(=O)(=O)c2cnc3cc(OC)c(OC)cc3c2N2CCCC(C)C2)cc1 (centres undefined) | ?
Cc1cccc(Nc2nc3ccccc3n3c(N)nnc23)c1 | -46%
COc1ccc(N(CC(=O)Nc2cc(C)ccc2C)S(=O)(=O)c2ccc(OC)c(OC)c2)cc1 | 0%
O=C(Cc1ccccc1)Nc1cccc(-c2cn3cccnc3n2)c1 | -36%
COc1cc2c(cc1OC)C(CC(=O)O)N(C(=O)Nc1cc(OC)c(OC)c(OC)c1)CC2 (centres undefined) | 1%
Cc1ccc(Nc2ncnc3onc(C)c23)cc1Cl | -2%
CCOc1ccccc1NC(=O)c1c(NC(=O)c2ccccc2C)sc2c1CCC(C)C2 (centres undefined) | -1%
COC(=O)c1sc(-c2ccccc2)cc1NC(=O)c1cccc(Cl)c1 | 0%
Cc1c(Cl)cccc1NC(=O)NCCOCCn1c(=O)oc2ccccc21 | 15%
CCOC(=O)c1sc2ccccc2c1S(=O)(=O)N1CCN(c2cccc(OC)c2)CC1 | 22%
CCCSCCCNC(=O)c1ccc(C)c(NC(=O)c2nsc3ccccc23)c1 | 2%

Following part
SMILES | miR-21 reporter
O=C(NC1(C(F)(F)F)C(=O)Nc2c1c(=O)[nH]c(=O)n2-c1ccccc1)c1ccccc1Cl (centres undefined) | -3%
CCN(CC)CCNC(=O)CN1C(=O)c2cccnc2Oc2ccc(C)cc21 | -5%
Cc1cc(S(=O)(=O)Nc2ccc3[nH]c(=O)sc3c2)ccc1F | -1%
CCOC(=O)/C(C#N)=C/c1ccc(-c2ccc(C)cc2)o1 | -4%
CCCn1c2ccccc2c2cnn(CC(=O)N3CCC(C)CC3)c(=O)c21 | -3%
COC(=O)c1ccc(NS(=O)(=O)c2c(C)nc3sccn3c2=O)cc1 | 0%
CCC(CC)C(=O)Nc1cccc(-c2cn3cccnc3n2)c1 | -7%
CC(C)(Oc1ccc(Cl)cc1)C(=O)Nc1nnc2n1CCS2 | 2%
CCc1nn2c(-c3ccccc3OC)ccnc2c1-c1ccc(F)cc1 | -8%
COc1cc(OC)c(Nc2cc(C)nc3ncnn23)cc1Cl | -9%
COc1cccc(-c2nc(-c3ccc(-c4ccccc4)nc3OC)no2)c1 | -4%
CCS(=O)(=O)N1CCc2cc(C(=O)NCc3ccc(OC)cc3)ccc21 | -1%
CCOC(=O)CCn1cnc2onc(-c3cc(OC)ccc3Cl)c2c1=O | 4%
CCOC(=O)c1ccc2c(c1)N(Cc1ccc(F)cc1Cl)C(=O)c1ccccc1S2(=O)=O | 3%

An excerpt from above in order of formula weight, lowest first:
SMILES | miR-21 reporter
Cc1cc(S(=O)(=O)Nc2ccc3[nH]c(=O)sc3c2)ccc1F | -1%
CCc1nn2c(-c3ccccc3OC)ccnc2c1-c1ccc(F)cc1 | -8%
CCOC(=O)CCn1cnc2onc(-c3cc(OC)ccc3Cl)c2c1=O | 4%

A different layout for some results above:
mol	miR-21 reporter
O=C(NC1(C(F)(F)F)C(=O)Nc2c1c(=O)[nH]c(=O)n2-c1ccccc1)c1ccccc1Cl (centres undefined)	-3%
CCN(CC)CCNC(=O)CN1C(=O)c2cccnc2Oc2ccc(C)cc21	-5%
Cc1cc(S(=O)(=O)Nc2ccc3[nH]c(=O)sc3c2)ccc1F	-1%
CCOC(=O)/C(C#N)=C/c1ccc(-c2ccc(C)cc2)o1	-4%
CCCn1c2ccccc2c2cnn(CC(=O)N3CCC(C)CC3)c(=O)c21	-3%
COC(=O)c1ccc(NS(=O)(=O)c2c(C)nc3sccn3c2=O)cc1	0%
CCC(CC)C(=O)Nc1cccc(-c2cn3cccnc3n2)c1	-7%
CC(C)(Oc1ccc(Cl)cc1)C(=O)Nc1nnc2n1CCS2	2%
CCc1nn2c(-c3ccccc3OC)ccnc2c1-c1ccc(F)cc1	-8%
COc1cc(OC)c(Nc2cc(C)nc3ncnn23)cc1Cl	-9%
COc1cccc(-c2nc(-c3ccc(-c4ccccc4)nc3OC)no2)c1	-4%
CCS(=O)(=O)N1CCc2cc(C(=O)NCc3ccc(OC)cc3)ccc21	-1%
CCOC(=O)CCn1cnc2onc(-c3cc(OC)ccc3Cl)c2c1=O	4%
CCOC(=O)c1ccc2c(c1)N(Cc1ccc(F)cc1Cl)C(=O)c1ccccc1S2(=O)=O	3%

Only part of the results is shown, so the mix of outcomes need not match the whole.
